# Bioassay records deposited in PubChem by National Center for Advancing Translational Sciences (NCATS).
# NS1 function inh: influenza NS1 inhibition; S. cerevisiae slowed by influenza A NS1, growth recovery by OD600; Potency, µM (highest dose often 46.1 µM), for inactives: at the highest dose activity, positive = more growth; 270,000 compounds, 0.4% hits; AID 2326; also: actives are rising curves; nearly all actives have a fitted effect of over 50% in size
#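 Compounds were scored for reversing the slow growth caused by influenza A NS1 in S. cerevisiae, measured by optical density at 600 nm. Assay medium contained 2% galactose at pH 6.0; NS1-free yeast of the same strain were the positive control.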
# Lassa entry inh: Lassa virus entry inhibition; Lassa virus pseudotype entry inhibition, cell reporter; control for the full effect not named in the record; Potency, µM (titrated, usually from 37.9 µM), for inactives: at the top dose activity change, negative = inhibition, actives largely listed as inhibitors; 300,000 compounds, 1.2% hits; AID 540256; active means well fitted inhibition curve with a large enough effect; inconclusive means small, poorly fitted or top-dose-only effect, or effect the other way; inactive means flat fitted curve, though single readings scatter; tested in HEK293 cells; also: % is scaled to controls: 0 for no effect and ±100 for the full control effect; nearly all actives have a fitted effect of over 50% in size; luciferase read-out
# RE007 growth inh: less growth of the S. pombe RE007 Vpr strain. 360,000 compounds, 0.21% hits. Potency, µM (doses to about 92.2 µM), without a hit: top-dose activity change, negative = less growth. S. pombe RE007 Vpr strain, BacTiter-Glo ATP luminescence, 24 h; control for the full effect not named in the record; active = well fitted falling curve with a large enough effect; inconclusive = small, poorly fitted or top-dose-only effect; inactive = no such curve, though single readings can be large or run the other way;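 also: % is scaled to controls: 0 for no effect and ±100 for the full control effect; nearly all actives have a fitted effect of over 50% in size; the assay follows cell death caused by Vpr and the record does not say whether a fall means rescue or toxicity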
#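 Fission yeast RE007 carrying one integrated HIV-1 vpr copy, seeded at OD 0.01 in PMG+AL medium with 23 nL pinned compound. Grown 24 h at 30 degrees; viability read by BacTiter-Glo luminescence after 5 min.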
# SARS PLpro yeast: inhibitors of SARS-CoV papain-like protease in yeast. Potency, µM (series often up to 32.9 µM), for inactives: top-dose activity, positive = growth rescue. S. cerevisiae expressing SARS-CoV PLpro, growth rescue; control for the full effect not named in the record. 330,000 compounds, 0.19% hits. AID 485353; also: 0% is about no effect; nearly all actives have a fitted effect of over 55% in size; growth read by luminescence after 48 h
# Cruzain inh noDet: cruzain (T. cruzi) inhibition without detergent; P25779; purified cruzain, Z-FR-AMC fluorescence, no detergent; Potency, µM, without a hit: max response, negative = inhibition, actives largely listed as inhibitors; 200,000 compounds, 2.3% hits; active = well fitted curve in the direction sought with a large enough effect; inconclusive = small, poorly fitted or top-dose-only effect, or another doubt; inactive = no such curve, though single readings can be large; an effect the other way counts as inactive or inconclusive;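 also: plate controls were enzyme without inhibitor for no effect and buffer without enzyme for full effect; nearly all actives have a fitted effect of over 40% in size; top concentration of the series not given in the record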
# Target sequence (P25779 123-467 limits assumed): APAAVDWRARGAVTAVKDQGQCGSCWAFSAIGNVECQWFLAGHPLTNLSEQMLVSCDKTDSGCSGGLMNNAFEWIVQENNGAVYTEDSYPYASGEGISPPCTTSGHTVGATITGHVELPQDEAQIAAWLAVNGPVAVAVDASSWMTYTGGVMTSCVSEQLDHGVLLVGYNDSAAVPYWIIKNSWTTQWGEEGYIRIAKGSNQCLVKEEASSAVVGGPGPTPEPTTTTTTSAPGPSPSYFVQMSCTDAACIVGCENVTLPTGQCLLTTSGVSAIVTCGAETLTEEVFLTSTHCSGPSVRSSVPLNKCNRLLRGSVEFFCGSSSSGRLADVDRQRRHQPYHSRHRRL
#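 Detergent-free condition (0.00005% Triton X-100) in acetate buffer pH 5.5 with DTT. 1.5 nM enzyme and compound were pre-mixed 15 min, then 2 uM Z-FR-AMC substrate added; reaction progress from fluorescence change between first and third reads (60 s).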
# 2A StopGo: FMDV 2A StopGo reporter, luciferase signal. 410,000 compounds, 1.2% hits. human cells with a luciferase reporter of 2A StopGo recoding; control for the full effect not named in the record. Potency, µM (highest dose often 57.9 µM), for the others: top-dose signal change, negative = less light; active = well fitted falling curve with a large enough effect; inconclusive = small, poorly fitted or top-dose-only effect; inactive = no such curve, though single readings can be large or run the other way; tested in HEK293T cells; also: % is scaled to controls: 0 for no effect and ±100 for the full control effect; nearly all actives have a fitted effect of over 45% in size; luciferase light after 4 h
# Marburg entry inh: blocks Marburg virus binding to or entry into cells; Marburg virus pseudotyped entry inhibition, cell reporter; control for the full effect not named in the record; about a third of the inactives were read at about 46 µM; Potency, µM (doses to about 37.8 µM), inactives show at the top dose activity change, negative = inhibition, most hits filed as inhibitors; 300,000 compounds, 1.8% hits; active = well fitted inhibition curve with a large enough effect; inconclusive = small, poorly fitted or top-dose-only effect, or effect the other way; inactive = flat fitted curve, though single readings scatter; tested in HEK293 cells; about a fifth of its hits are not listed in these tables; also: % is scaled to controls: 0 for no effect and ±100 for the full control effect; luciferase read-out
# Cruzain Triton: cruzain (T. cruzi) inhibition with detergent; P25779; purified cruzain, Z-FR-AMC fluorescence, 0.01% Triton; Potency, µM, inactives show max response, negative = inhibition, actives largely listed as inhibitors; 200,000 compounds, 0.43% hits; active = well fitted curve in the direction sought with a large enough effect; inconclusive = small, poorly fitted or top-dose-only effect, or another doubt; inactive = no such curve, though single readings can be large; an effect the other way counts as inactive or inconclusive;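 also: plate controls were neutral wells for no effect and buffer without enzyme for full effect; nearly all actives have a fitted effect of over 40% in size; top concentration of the series not given in the record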
#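 Z-FR-AMC hydrolysis (2 uM substrate) by cruzain (1.5 nM) monitored kinetically at ex 360/em 450 nm after 15 min room-temperature compound exposure; 0.01% Triton X-100, pH 5.5, 5 mM DTT.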
# * marks the source's active call; other numbers are inactive results; ? = inconclusive; . = no result given; & = joins results of further samples; [ ] = another dose, or the depositor's remark. Unless noted, calls follow the shape of the dose curve; as a rule, active means well fitted rising curve with a large enough effect; inconclusive means small, poorly fitted or top-dose-only effect; inactive means no such curve, though single readings can be large or run the other way. Potency is read from the fitted curve at half-maximal effect.
Compound | NS1 function inh | Lassa entry inh | RE007 growth inh | SARS PLpro yeast | Cruzain inh noDet | 2A StopGo | Marburg entry inh | Cruzain Triton
COc1ccc(S(=O)(=O)NCCOc2cccc3cccnc23)cc1OC | . | 12%[46.1 µM] | 1% | 0% | . | 3% | 3% | .
O=C1CSC(c2cccc([N+](=O)[O-])c2)N1C1CC2CCC1C2 (stereo not drawn) | 1% | 2% | 1% | 1% | . | -17% | -26% | .
O=C(c1cc(C2CC2)on1)N1CCN(c2ccccc2)CC1 | 7% | . | -11% | 1% | -4% | 22% | . | 4.5%
CCOc1ccc(-n2nnc3c(=O)n(CC(=O)Nc4cc(C)on4)cnc32)cc1 | -1% | -19% | -9% | 1% | . | 7% | 22%[46.1 µM] | .
CC1CC(C)CN(S(=O)(=O)c2ccc(Cl)cc2)C1 (stereo not drawn) | 14% | -22% | 7% | 21% | . | -7% | -2% | .
Cn1c(=O)c(=O)n(C)c2cc(S(=O)(=O)N3CCC(N4CCCCC4)CC3)ccc21 | -3% | 0% | 4% | . | . | 8% | 1% | .
COc1ccc(NC(=O)COc2ncnc3ccccc23)cc1S(=O)(=O)N1CCOCC1 | 0% | -13% | 20% | -4% | . | -13% | 17%[46.1 µM] | .
Cc1c(C=O)c2ccccn2c1C(=O)c1ccc(Cl)c([N+](=O)[O-])c1 | . | -9% | -2% | 1% | . | ? | 0%[14.2 µM] | .
CC(=O)Nc1cccc(NC(=O)CSc2nnnn2Cc2ccccc2)c1 | 1% | ? | -2% | 8% | 5% | -28% | ? | 2.4%
CC(=O)OCC(=O)C1(O)CCC2C3CCC4=CC(=O)CCC4(C)C3(F)C(O)CC21C (stereo not drawn) | . | 15% | 8% | . | . | -23% | ? | .
CCS(=O)(=O)n1nc(-c2ccc(C)cc2)nc1N | 14% | 2% | 2% | -4% | -1% | 31%[activator] | 9%[46.1 µM] | -2.3%
COC(=O)c1[nH]c2ccccc2c1NC(=O)C(C)N1CCOCC1 (stereo not drawn) | 0% | . | 18% | -1% | . | -5% | . | .
Cn1cc(CN(CCO)Cc2cccs2)c(-c2ccccc2F)n1 | -2% | -2%[46.1 µM] | 8% | 0% | . | 11% | 0%[46.1 µM] | .
OCCNCCO | 7% | . | -7% | 2% | 4% | -11% | . | 7.0%
CCOC(=O)c1nn(-c2ccc3c(c2)CCN3C(C)=O)cc1O | -52% | ? | 3% | -5% | -3% | . | ? | -20%
CCCOc1ccc(CC(=O)NCc2ccco2)cc1OC | 0% | 11% | 4% | -1% | 10% | -5% | ? | -1.3%
CC(C)=CC(=O)OCC(=O)Nc1ccc(Cl)cc1 | -12% | -12%[46.1 µM] | -26% | -1% | . | -14% | ? | .
O=C(c1cc[n+]([O-])cc1)N1CCc2c([nH]c3ccccc23)C1c1ccccc1Cl (stereo not drawn) | -4% | ? | -9% | -1% | . | -10% | ? | .
CCCN1C(=O)C(=O)N(CC(=O)c2cc(C)n(C3CC3)c2C)C1=O | . | 13% | 11% | 6% | . | 21% | ? | .
CCOC(=O)c1c(NC(=O)COc2ccc(Br)cc2)sc2c1CCCC2 | . | 0%[46.1 µM] | . | . | -8% | -23% | . | -1.4%
COC(=O)c1ccc(CN2CCC(Oc3cccc(C(=O)N4CCOCC4)c3)CC2)cc1 | -3% | . | 6% | -2% | . | ? | . | .
COc1ccc(NC(=O)c2c(C(F)(F)F)nn(C)c2SCc2ccccc2)cc1 | -22% | ? | -15% | -3% | 3% | 0% | -20% | 0.3%
Cc1cccc(OCC(=O)NC(=S)Nc2ccccc2N2CCOCC2)c1 | 7% | -9% | -12% | 0% | 16% | ? | -23% | -7.4%
COc1ccc(NC(=O)c2ccco2)cc1NC(=O)C(C)Oc1ccc(Cl)cc1Cl (stereo not drawn) | . | ? | . | . | 1% | ? | ? | -6.0%
Cc1nnc(SC(C)C(=O)N2CCc3ccccc32)s1 (stereo not drawn) | -48% | 3% | 23% | -4% | 7% | 0% | ? | 7.4%
CS(=O)(=O)N(Cc1ccccc1)c1ccc(C(=O)Nc2ccc(Cl)cc2)cc1 | . | ? | . | . | 1% | ? | . | 2.0%
CC(C)(C)c1ccc(C(=O)N/N=C/c2ccccn2)cc1 | -58% | . | ? | -1% | . | -11% | . | .
C[C@H](NC(=O)c1nc[nH]c1C(=O)N[C@@H](Cc1ccccc1)C(=O)OC(C)(C)C)c1ccccc1 | ? | . | 4% | -1% | . | -29% | . | .
COc1ccc(CN(C)CC(=O)c2c(N)n(Cc3ccccc3)c(=O)n(C)c2=O)c(OC)c1 | 4% | 3% | -16% | -1% | -13% | . | ? | 3.9%
O=C(NCc1ccco1)C1Cc2ccccc2CN1S(=O)(=O)c1ccccc1F (stereo not drawn) | 1% | -7% | 0% | . | . | -25% | -6% | .
CCCCN(C(=O)/C=C/c1ccccc1)C1CCS(=O)(=O)C1 (stereo not drawn) | . | ? | 7% | 0% | . | -8% | -1%[46.1 µM] | .
CC1=C(C)C(=O)N(c2ccc(C(=O)O)cc2)C1=O | 7% | 17% | 10% | 8% | -2% | 1% | -5% | 1.4%
CC(NC(=O)c1ccc(Br)cc1Br)c1ccccc1 (stereo not drawn) | 0% | 6% | 6% | -2% | . | 13% | 4%[46.1 µM] | .
CC(C)N1C(=O)c2ccccc2N(Cc2ccccc2)S1(=O)=O | -7% | . | -8% | -1% | . | -21% | . | .
CCC1CN(C(=O)N2CCC(C(=O)NCCc3ccc(OC)cc3OC)CC2)c2cc(C)ccc2O1 (stereo not drawn) | . | -18%[46.1 µM] | . | . | 16% | 28µM* | . | -1.4%
CCc1ccc(C(=O)c2cn(CC(=O)Nc3ccc4c(c3)OCO4)c3ccc(OC)cc3c2=O)cc1 | . | -2%[46.1 µM] | . | . | ? | 6% | ? | -7.9%
Cc1c(C(=O)N2CCCCCC2)c(S(=O)(=O)Nc2ccc(F)cc2)c(C)n1C | -3% | ? | 10% | 0% | . | 66%[activator] | -19%[46.1 µM] | .
Cc1cc2oc(=O)cc(C)c2cc1NC(=O)CCC(=O)O | -9% | -9% | 9% | 6% | -4% | . | 18% | -0.4%
CCc1cccc(NC(=O)CSCc2cc(=O)[nH][nH]2)c1 | ? | ? | -11% | 5% | 2% | 9% | 8% | -5.5%
COc1ccc(NC(=O)CSc2nc3nc(C)c(Cc4ccc(C)cc4)c(C)n3n2)cc1OC | . | 5%[46.1 µM] | . | . | 6% | ? | . | 0.9%
Cc1ccc(S(=O)(=O)N2CCCC(C(=O)NCC3COCCO3)C2)cc1 (stereo not drawn) | -17% | 4% | 17% | -1% | -2% | -2% | 0% | 0.6%
Cn1cc(S(=O)(=O)N2CCN(c3cccc(Cl)c3)CC2)c(=O)n(C)c1=O | -1% | -4%[46.1 µM] | -7% | 0% | . | -12% | -6%[46.1 µM] | .
CCN(CC)C(=O)c1[nH]cnc1C(=O)N[C@@H](Cc1ccccc1)C(=O)OCc1ccccc1 | -4% | . | 2% | -1% | . | -18% | . | .
Cc1ccc(S(=O)(=O)N(C)C)cc1NC(=O)C(C)OC(=O)C1CCCC1 (stereo not drawn) | . | 3% | -12% | -3% | . | -4% | 2% | .
CC1(C)C(=O)Nc2ccccc2N1C(=O)COC(=O)Cc1ccccc1F | . | 5% | 3% | 5% | . | -13% | 7% | .
CNC(=S)N1CCN(c2nc(-c3ccc(Cl)cc3)cs2)CC1 | 15% | ? | -17% | -3% | . | -20% | ? | .
C=CCn1c(SCc2nc3ccccc3[nH]2)nnc1-c1ccccn1 | -1% | 3% | 8% | -10% | -14% | -6% | 6% | -3.9%
Cc1cccc2sc(NC(=O)CN(C)S(=O)(=O)c3ccc(Br)s3)nc12 | -95% | ? | -1% | -22% | -30% | ? | ? | -11%
CCOc1ccccc1C(=O)N(Cc1sccc1C)C1CCS(=O)(=O)C1 (stereo not drawn) | 4% | 0% | 12% | 0% | -9% | -10%&-7% | ? | -2.0%
CCOc1ccc(N2C(=O)C3C(c4ccc(OC)cc4OC)NC(CCSC)(C(=O)OC)C3C2=O)cc1 (stereo not drawn) | 1% | -19%[46.1 µM] | -4% | -1% | . | 4% | ? | .
COc1ccc(N2CCN(S(=O)(=O)c3cccc4cccnc34)CC2)cc1 | -5% | . | 4% | 2% | 14% | -5% | . | 0.2%
CC1CCCCN1C(=O)c1c([N+](=O)[O-])cnn1C (stereo not drawn) | 8% | . | 2% | -5% | . | -23% | . | .
Cc1ccc(N(C(=O)CNC(=O)c2ccco2)C(C(=O)NC2CCCC2)c2ccncc2)cc1C (stereo not drawn) | -4% | . | 19% | -4% | . | -3% | -1%[46.1 µM] | .
O=C(Nc1ccc(F)c(F)c1)c1ccco1 | 2% | . | -24% | 1% | . | 21% | . | .
CCOC(=O)/C(=N\Nc1ncnc2ccccc12)c1ccc(OC)cc1 | -16% | ? | -6% | -6% | . | -57% | ? | .
CCOc1ccc(-c2nnc(NC(=O)CCCOc3cccc(C)c3)o2)cc1 | 0% | ? | -11% | -10% | ? | 37%[activator] | ? | -0.6%
Cc1ccc(N=Nc2c(=O)[nH]n3c(=O)cc(C)[nH]c23)cc1 | -13% | 2% | -4% | -8% | -9% | 36%[activator] | -2% | -13%
Cc1c(-c2nsc(NC(=O)c3cccc(Cl)c3)n2)nnn1-c1ccccc1C(F)(F)F | . | -22%[46.1 µM] | . | . | -15% | -23% | . | -3.2%
Cc1noc(NS(=O)(=O)c2ccc(NC(=O)c3cc(-c4ccccc4Cl)nc4ccccc34)cc2)c1C | -9% | . | 0% | -2% | . | 16% | . | .
CCOc1ccc(S(=O)(=O)N2CC(=O)Nc3ccccc32)cc1 | 0% | ? | 53% | 1% | . | -7% | ? | .
CC(=O)c1c(C)[nH]c(C(=O)Nc2cc(F)ccc2C)c1C | -24% | 0% | -1% | -9% | . | 16% | 1%[46.1 µM] | .
CCc1ccc(N2C(=O)NC(=O)/C(=C/c3cccn3CCOc3ccc(C(C)CC)cc3)C2=O)cc1 (stereo not drawn) | -8% | . | -1% | 20% | -17% | ? | 1% | -2.9%

# This is a random part of the collection, and some 4.6% of all compounds hit somewhere here.
